2A StopGo: High Throughput Screening for Foot and Mouth Disease Virus Antivirals; Potency, µM (top dose mostly 57.9 µM), without a hit: top-dose signal change, negative = less light; hit rate 1.2% among 410,000; human cells with a luciferase reporter of 2A StopGo recoding; control for the full effect not named in the record; AID 1159524, 2015; active = well fitted falling curve with a large enough effect; inconclusive = small, poorly fitted or top-dose-only effect; inactive = no such curve, though single readings can be large or run the other way; tested in HEK293T cells; further: on the % scale 0 is the no-effect control and ±100 the full control effect; nearly all actives have a fitted effect of over 45% in size; luciferase light after 4 h
SARS PLpro yeast: qHTS of Yeast-based Assay for SARS-CoV PLP; S. cerevisiae expressing SARS-CoV PLpro, growth rescue; control for the full effect not named in the record; Potency, µM (highest dose often 32.9 µM), inactives show at the top dose activity, positive = growth rescue; hit rate 0.19% among 330,000; active means well fitted rising curve with a large enough effect; inconclusive means small, poorly fitted or top-dose-only effect; inactive means no such curve, though single readings can be large or run the other way; further: 0% is about no effect; nearly all actives have a fitted effect of over 55% in size; growth read by luminescence after 48 h
LASV entry inh: qHTS for Inhibitors of binding or entry into cells for Lassa Virus; Lassa virus pseudotype entry inhibition, cell reporter; control for the full effect not named in the record; Potency, µM (highest dose often 37.9 µM), for the others: at the top dose activity change, negative = inhibition, actives largely listed as inhibitors; hit rate 1.2% among 300,000; active means well fitted inhibition curve with a large enough effect; inconclusive means small, poorly fitted or top-dose-only effect, or effect the other way; inactive means flat fitted curve, though single readings scatter; tested in HEK293 cells; further: on the % scale 0 is the no-effect control and ±100 the full control effect; nearly all actives have a fitted effect of over 50% in size; luciferase read-out
NS1 function inh: qHTS Assay for Inhibitors of Influenza NS1 Protein Function; S. cerevisiae slowed by influenza A NS1, growth recovery by OD600; Potency, µM (series often up to 46.1 µM), inactives show at the highest dose activity, positive = more growth; hit rate 0.4% among 270,000; active means well fitted rising curve with a large enough effect; inconclusive means small, poorly fitted or top-dose-only effect; inactive means no such curve, though single readings can be large or run the other way; further: nearly all actives have a fitted effect of over 50% in size
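Read-out: OD600 growth recovery of NS1-expressing budding yeast. Cells grown overnight at 30C in -URA glucose medium, washed, resuspended and diluted 1:100 in 2% galactose assay medium, pH 6.0. Same strain lacking NS1 served as positive control.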
MARV entry inh: qHTS for inhibitors of binding or entry into cells for Marburg Virus | Marburg virus pseudotyped entry inhibition, cell reporter; control for the full effect not named in the record; about a third of the inactives were read at about 46 µM | Potency, µM (top dose mostly 37.8 µM), for the others: top-dose activity change, negative = inhibition, actives largely listed as inhibitors | hit rate 1.8% among 300,000; active = well fitted inhibition curve with a large enough effect; inconclusive = small, poorly fitted or top-dose-only effect, or effect the other way; inactive = flat fitted curve, though single readings scatter; tested in HEK293 cells; about a fifth of its hits are not listed in these tables; further: on the % scale 0 is the no-effect control and ±100 the full control effect; luciferase read-out
Cruzain inh Det: qHTS Assay for Promiscuous and Specific Inhibitors of Cruzain (with detergent). purified cruzain, Z-FR-AMC fluorescence, 0.01% Triton. Potency, µM, without a hit: max response, negative = inhibition, actives largely listed as inhibitors. hit rate 0.43% among 200,000. AID 1478, 2009;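 further: plate controls were neutral wells for no effect and buffer without enzyme for full effect; nearly all actives have a fitted effect of over 40% in size; top concentration of the series not given in the record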
Target sequence (P25779 123-467 limits assumed): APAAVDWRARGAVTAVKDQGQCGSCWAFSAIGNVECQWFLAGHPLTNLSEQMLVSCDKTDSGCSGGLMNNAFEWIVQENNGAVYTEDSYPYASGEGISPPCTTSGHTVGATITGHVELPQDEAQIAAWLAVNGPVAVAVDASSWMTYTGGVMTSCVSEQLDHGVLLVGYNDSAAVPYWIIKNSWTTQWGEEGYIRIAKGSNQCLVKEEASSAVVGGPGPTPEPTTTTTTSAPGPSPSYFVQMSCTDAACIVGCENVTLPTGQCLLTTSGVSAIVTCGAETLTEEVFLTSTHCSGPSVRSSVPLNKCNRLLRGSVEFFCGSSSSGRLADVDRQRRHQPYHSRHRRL
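15 min RT preincubation of 1.5 nM cruzain with compound, then 2 uM Z-FR-AMC added; kinetic AMC fluorescence, 60 s delta. Triton X-100 0.01%, pH 5.5.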
RE007 growth inh: qHTS Assay for Inhibitors of the HIV-1 protein Vpr | S. pombe RE007 Vpr strain, BacTiter-Glo ATP luminescence, 24 h; control for the full effect not named in the record | Potency, µM (highest dose often 92.2 µM), without a hit: at the highest dose activity change, negative = less growth | hit rate 0.21% among 360,000; active = well fitted falling curve with a large enough effect; inconclusive = small, poorly fitted or top-dose-only effect; inactive = no such curve, though single readings can be large or run the other way;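 further: on the % scale 0 is the no-effect control and ±100 the full control effect; nearly all actives have a fitted effect of over 50% in size; the assay follows cell death caused by Vpr and the record does not say whether a fall means rescue or toxicity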
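Fission yeast strain RE007, carrying one chromosomally integrated HIV-1 vpr copy, was seeded at OD 0.01 in PMG+AL medium with 23 nL pinned compound. After 24 h at 30 °C and 99% humidity, viability was read by BacTiter-Glo luminescence.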
Cruzain noTriton: qHTS Assay for Promiscuous and Specific Inhibitors of Cruzain (without detergent) | hit rate 2.3% among 200,000 | Potency, µM, for inactives: max response, negative = inhibition, most hits filed as inhibitors | AID 1476, 2009 | purified cruzain, Z-FR-AMC fluorescence, no detergent;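 further: plate controls were enzyme without inhibitor for no effect and buffer without enzyme for full effect; nearly all actives have a fitted effect of over 40% in size; top concentration of the series not given in the record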
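Detergent-free condition (0.00005% Triton X-100) in acetate buffer pH 5.5 with DTT. 1.5 nM enzyme and compound were pre-mixed 15 min, then 2 uM Z-FR-AMC substrate added; reaction progress from fluorescence change between first and third reads (60 s).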
An asterisk follows results filed as active; ? = inconclusive; · = not tested or not shown; & = joins results of further samples; [ ] = another dose, or the depositor's remark. Unless noted, the call rests on the fitted dose curve; in most records, active means well fitted curve in the direction sought with a large enough effect; inconclusive means small, poorly fitted or top-dose-only effect, or another doubt; inactive means no such curve, though single readings can be large; an effect the other way counts as inactive or inconclusive. Potency means the concentration at half of the fitted maximal effect. Rows are unselected; about 4.6% have a hit in one of these screens.

item | structure | 2A StopGo | SARS PLpro yeast | LASV entry inh | NS1 function inh | MARV entry inh | Cruzain inh Det | RE007 growth inh | Cruzain noTriton
1 | COc1ccccc1-c1noc(CCC(=O)Nc2ccc(C)cc2C)n1 | 0% | · | -2%[46.1 µM] | · | 3%[46.1 µM] | -5.0% | · | -10%
2 | CCCCN(C)C/C(O)=C(\C#N)c1nc(-c2ccccc2)cs1 | 90%[activator] | -8% | -2% | 0% | 4% | -1.4% | -6% | -3%
3 | Cc1ccc(-c2nnc(CSc3nnc(COc4ccccc4)n3-c3ccc(C)cc3)o2)cc1 | -4% | -3% | -9% | -60% | ? | -4.9% | 16% | 16%
4 | Cc1cccn2c(CN3CCNC(=O)CC3)c(C(=O)N(C)CCc3ccccc3)nc12 | -3% | -1% | 0% | 5% | ? | · | 23% | ·
5 | Nc1nncn1C(=O)c1ccccc1Cl | -22% | 2% | ? | 1% | -3% | -0.6% | 5% | -15%
6 | Cc1ccc(C(=O)NCC(c2ccc3c(c2)OCO3)N2CCN(c3ccc(F)cc3)CC2)cc1 (stereo not drawn) | ? | · | ? | · | · | -1.4% | · | -1%
7 | CCOC(=O)c1sc(NC(=O)CCN2CC(C)OC(C)C2)c(C(=O)OCC)c1C (stereo not drawn) | · | -1% | · | -5% | 4% | -4.4% | · | 6%
8 | c1ccc2c(C3=NNC(=NC4CCCCC4)SC3)c[nH]c2c1 | 34%[activator] | 0% | 2% | ? | 0% | -6.9% | -14% | ?
9 | CCc1nnc(NS(=O)(=O)c2ccc(NC(=S)NC(=O)/C=C/c3ccc([N+](=O)[O-])cc3)cc2)s1 | 13% | 2% | · | 20% | · | · | -2% | ·
10 | Cc1cccc(OCC(=O)Nc2ccc(N3CCN(S(C)(=O)=O)CC3)cc2)c1 | -9% | 4% | -2% | -3% | 7% | -2.7% | 26% | ?
11 | CCc1ccc(OCC(=O)NC(NC(=S)Nc2ccccc2OC)C(Cl)(Cl)Cl)cc1 (stereo not drawn) | -10% | 16% | -28% | 13% | -14% | -10.0% | 0% | 1%
12 | C/C(=N\O)C(=O)Nc1ccccc1 | 10% | 0% | · | 1% | · | · | 20% | ·
13 | O=C(CNC1CCCCC1)Nc1ccc(S(=O)(=O)N2CCCCC2)cc1 | 51%[activator] | 5% | · | ? | 8%[46.1 µM] | · | 15% | ·
14 | CC(NC(=O)C1CCN(S(=O)(=O)c2cccc3nonc23)CC1)c1ccccc1 (stereo not drawn) | 13% | -4% | -12%[46.1 µM] | 6% | -13%[46.1 µM] | · | 6% | ·
15 | COC(=O)c1c(NC(NC(C)=O)C(Cl)(Cl)Cl)sc2c1CCCC2 (stereo not drawn) | 35µM* | -15% | -18% | 15% | ? | -15% | 16% | 19%
16 | COc1ccc(S(=O)(=O)N2CCCC2c2cccs2)cc1 (stereo not drawn) | 6% | -1% | · | -33% | · | · | 2% | ·
17 | O=C(Cn1ccc2ccccc2c1=O)NCCC(=O)N1CCN(c2ccccc2)CC1 | -16% | 2% | 9%[46.1 µM] | 3% | 8%[46.1 µM] | · | -9% | ·
18 | Cn1cc(CCNC(=O)CC2C(=O)NCCN2Cc2cccc(Oc3ccccc3)c2)cn1 (stereo not drawn) | 0% | -1% | · | 3% | · | · | 52% | ·
19 | CCc1ccc2c(c1)C(=O)C(=O)N2CCS(=O)(=O)c1ccccc1 | -28% | -2% | · | 9% | · | · | -10% | ·
20 | COCCn1c(SCC(=O)Nc2ccc(C)cc2C)nc2c(oc3ccccc32)c1=O | 7% | -2% | 0% | -1% | -4% | 0.2% | 3% | 4%

The list goes on:
item | structure | 2A StopGo | SARS PLpro yeast | LASV entry inh | NS1 function inh | MARV entry inh | Cruzain inh Det | RE007 growth inh | Cruzain noTriton
21 | CCN(CC)CC(=O)c1c[nH]c2ccccc12 | -19% | -9% | -1% | -6% | -5% | -2.3% | -6% | -6%
22 | O=C(CSc1ccc2nnc(CCNC(=O)c3ccccc3)n2n1)Nc1ccccc1 | -7% | -1% | 6%[46.1 µM] | · | 5%[46.1 µM] | · | -3% | ·
23 | CCC1CN(C(=O)N2CCC(C(=O)NCc3ccccc3OC)CC2)c2cc(C)ccc2O1 (stereo not drawn) | -21% | -1% | · | -14% | · | · | 1% | ·
24 | COC(=O)c1cccc(C(=O)N2CCCC(C(=O)c3ccccc3OC)C2)c1 (stereo not drawn) | 0% | -5% | -21% | -9% | 26% | · | 7% | ·
25 | COc1ccc(C(=O)OCC(=O)NC(=O)NC2CCCC2)c(O)c1 | -9% | -2% | -8% | · | 1% | · | -2% | ·
26 | COc1cccc(N2CCN(S(=O)(=O)c3ccc(-c4cc(C(F)(F)F)on4)s3)CC2)c1 | -11% | · | 10%[46.1 µM] | · | · | 3.4% | · | -8%
27 | Cc1ccc(C(=O)OCC(=O)NNC(=O)c2cccs2)c(O)c1 | 16% | 0% | 0% | · | -3%[46.1 µM] | · | 41% | ·
28 | Cc1ccc(S(=O)(=O)n2cccc2C)cc1 | -2% | · | 13%[46.1 µM] | · | -6%[46.1 µM] | · | 1% | ·
29 | CCCn1nnnc1NCc1ccc(Cl)cc1Cl | 2% | -1% | 0%[46.1 µM] | -6% | 0%[46.1 µM] | · | 5% | ·
30 | O=C(NCC(=O)N(Cc1cccs1)C(C(=O)NC1CCCCC1)c1ccco1)c1cccs1 (stereo not drawn) | -7% | -10% | 6% | 1% | -18%[46.1 µM] | -3.0% | -10% | 0%
31 | O=C(CSc1nnc2c(n1)[nH]c1ccc(F)cc12)OCc1ccccc1 | -24% | -6% | -12% | 0% | -23% | 2.5% | 0% | 13µM*
32 | CCCCc1nnc(SCc2ccc(OCC)cc2)n1N | 9% | 0% | -1% | 3% | ? | 7.3% | 21% | -7%
33 | COc1ccc(/C=N/NC(=O)c2[nH]c3ccc(C)cc3c2-c2ccccc2)c(C(=O)O)c1OC | 6% | -1% | -5% | 16% | -16%[46.1 µM] | · | 3% | ·
34 | O=C(Nc1ccccc1)c1ccc(OC(=O)c2ccccc2)cc1 | 39%[activator] | -11% | 17% | 1% | 3% | · | -2% | ·
35 | CCCc1nc(SC2CCCC2)c2c(=O)n(C)c(=O)n(C)c2n1 | ? | 2% | · | -87% | · | -3.6% | 9% | 2%
36 | O=C(CN1C(=O)S/C(=C/c2cc(Br)cs2)C1=O)N1CCOCC1 | -19% | -3% | 15% | -5% | 7% | -4.6% | 0% | -5%
37 | O=C1/C(=C\c2cc(Cl)c(O)c(Cl)c2)SC(=S)N1Cc1ccccc1 | ? | -6% | 4µM* | 1% | 6.3µM* | · | 5% | ·
38 | O=C(NCc1ccccc1C(F)(F)F)C1CC(O)CN1C(=O)Nc1ccccc1 (stereo not drawn) | 8% | -3% | · | -15% | · | · | 11% | ·
39 | CN(C)Cc1ccc(F)cc1Sc1ccc(Cl)cc1Cl | 0% | -13% | -4% | -13% | ? | -1.8% | 7% | -8%
40 | COc1ccc(C(=O)NCc2nc3ccccc3[nH]2)cc1OC | -18% | 3% | · | 5% | · | 2.0% | 2% | -8%

Pulled by structure from the list above (3):
item | structure | 2A StopGo | SARS PLpro yeast | LASV entry inh | NS1 function inh | MARV entry inh | Cruzain inh Det | RE007 growth inh | Cruzain noTriton
26 | COc1cccc(N2CCN(S(=O)(=O)c3ccc(-c4cc(C(F)(F)F)on4)s3)CC2)c1 | -11% | · | 10%[46.1 µM] | · | · | 3.4% | · | -8%
28 | Cc1ccc(S(=O)(=O)n2cccc2C)cc1 | -2% | · | 13%[46.1 µM] | · | -6%[46.1 µM] | · | 1% | ·
23 | CCC1CN(C(=O)N2CCC(C(=O)NCc3ccccc3OC)CC2)c2cc(C)ccc2O1 (stereo not drawn) | -21% | -1% | · | -14% | · | · | 1% | ·

Going on with the list:
item	structure	2A StopGo	SARS PLpro yeast	LASV entry inh	NS1 function inh	MARV entry inh	Cruzain inh Det	RE007 growth inh	Cruzain noTriton
41	CCC(=O)Nc1ccc(OCc2nc3ccccc3s2)cc1	1%	-1%	·	·	?	·	38%	·
42	O=C(Cn1cc2c(n1)CCCC2)N1CCc2ccccc21	-8%	-26%	0%	5%	12%	-1.1%	30%	-25%
43	O=C1OCc2ccc(NC(=O)c3sccc3Cl)cc21	9%	-1%	·	-5%	·	·	21%	·
44	COc1ccc(-c2nn(-c3ccccc3)cc2C(=O)n2nnc3ccccc32)cc1	20µM*	5%	5%	1%	8%	-14%	-11%	16µM*
45	O=C1c2oc3ccccc3c(=O)c2C(c2cccc(O)c2)N1CCCN1CCOCC1 (stereo not drawn)	-6%	-7%	·	-8%	-1%	0.0%	19%	-5%
46	CC(C)CCNC(=O)c1ccc2c(SCC(=O)O)c3c(nc2c1)CCC3	21%	3%	?	6%	10%	·	9%	·
47	CCCc1nnc(NC(=O)CCC(=O)Nc2ccc(Cl)cc2)s1	-5%	9%	·	-5%	·	·	3%	·
48	Cc1ccc(-c2csc(C3=C(O)CN(NC(=O)c4ccc([N+](=O)[O-])cc4)C3=N)n2)cc1	-5%	1%	?	8%	-14%[46.1 µM]	·	5%	·
49	O=C(O)CN(c1ccccc1)S(=O)(=O)c1cc(C(F)(F)F)cc(C(F)(F)F)c1	-24%	1%	6%[46.1 µM]	·	14%[46.1 µM]	·	1%	·
50	Cn1c(=O)c2c(nc(Sc3nc4ccccc4n3CC(=O)N3CCCCC3)n2C)n(C)c1=O	10%	4%	0%	0%	7%&7%	2.5%	11%	-7%

Screens deposited in PubChem BioAssay by National Center for Advancing Translational Sciences (NCATS).
